# SARS PLP yeast: blocks SARS-CoV papain-like protease in a yeast assay; S. cerevisiae expressing SARS-CoV PLpro, growth rescue; control for the full effect not named in the record; Potency, µM (series often up to 32.9 µM), without a hit: at the highest dose activity, positive = growth rescue; 330,000 tested, 0.19% active; active means well fitted rising curve with a large enough effect; inconclusive means small, poorly fitted or top-dose-only effect; inactive means no such curve, though single readings can be large or run the other way; further: 0% is about no effect; nearly all actives have a fitted effect of over 55% in size; growth read by luminescence after 48 h
# RE007 growth inh: less growth of the S. pombe RE007 Vpr strain | S. pombe RE007 Vpr strain, BacTiter-Glo ATP luminescence, 24 h; control for the full effect not named in the record | Potency, µM (titrated, usually from 92.2 µM), without a hit: at the highest dose activity change, negative = less growth | 360,000 tested, 0.21% active | AID 651644; active = well fitted falling curve with a large enough effect; inconclusive = small, poorly fitted or top-dose-only effect; inactive = no such curve, though single readings can be large or run the other way;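 further: on the % scale 0 is the no-effect control and ±100 the full control effect; nearly all actives have a fitted effect of over 50% in size; the assay follows cell death caused by Vpr and the record does not say whether a fall means rescue or toxicity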
#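 Fission yeast strain RE007, carrying one chromosomally integrated HIV-1 vpr copy, was seeded at OD 0.01 in PMG+AL medium with 23 nL pinned compound. After 24 h at 30 °C and 99% humidity, viability was read by BacTiter-Glo luminescence.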
# StopGo reporter: FMDV 2A StopGo reporter, luciferase signal. human cells with a luciferase reporter of 2A StopGo recoding; control for the full effect not named in the record. Potency, µM (top dose mostly 57.9 µM), for the others: at the top dose signal change, negative = less light. 410,000 tested, 1.2% active. AID 1159524; active = well fitted falling curve with a large enough effect; inconclusive = small, poorly fitted or top-dose-only effect; inactive = no such curve, though single readings can be large or run the other way; tested in HEK293T cells; further: on the % scale 0 is the no-effect control and ±100 the full control effect; nearly all actives have a fitted effect of over 45% in size; luciferase light after 4 h
# * = called active by the depositor; ? = inconclusive; & = joins results of further samples; [ ] = remark or other dose. Potency means the concentration at half of the fitted maximal effect. Some of the compounds tested, so the mix of outcomes need not match the whole.
mol | SARS PLP yeast | RE007 growth inh | StopGo reporter
CCN(CC(=O)Nc1ccc(NC(C)=O)cc1)C(=O)c1cc2ccccc2oc1=O | 2% | -5% | -10%
O=C(O)C1=CC[C@@H](c2ccc(Cl)cc2)N(S(=O)(=O)c2ccc(Cl)cc2)[C@H]1c1ccc(Br)cc1 | -14% | 12% | ?
O=C(COC(=O)/C=C/c1ccc(OC(F)F)cc1)NC(=O)NCc1ccccc1 | 4% | 2% | -16%
COc1ccc(-c2c(-c3cc(OC)cc(OC)c3)n(C)c3ccc(-c4cc(F)cc(OC)c4)cc23)cc1 | -2% | 11% | -13%
O=C(CCC(=O)N1CCN(c2ccc(C(F)(F)F)cn2)CC1)c1cccs1 | 3% | 3% | -5%
COc1ccc(OC)c(/C=C/C(=O)OCC(=O)Nc2nnc(-c3ccccc3)o2)c1 | 1% | 7% | 4%
O=C(COC(=O)c1ccccc1OCc1ccccc1Cl)NC1CCS(=O)(=O)C1 (configuration not stated) | -3% | 3% | -27%
Cc1ccc(NC(=O)Nc2ccc(F)cc2F)c(OC(F)F)c1 | 1% | -2% | 20%
CC(=O)N1CCN(C(=O)COC(=O)/C=C/c2ccc(C(F)(F)F)cc2)CC1 | 1% | -9% | -27%
CCOC(=O)c1nnn(-c2ccc([N+](=O)[O-])cc2)c1C | 1% | 25% | 14%
CC(C)[C@H](NC(=O)c1ccccc1F)C(=O)NC1CCCCC1 | 2% | -16% | -4%
CC(Oc1ccc(S(=O)(=O)N2CCCC2)cc1[N+](=O)[O-])C(=O)NC1(C#N)CCCCC1 (configuration not stated) | 5% | 1% | -25%
CC(C)(C)OC(=O)[C@H](CCCCN)NC(=O)c1nc[nH]c1C(=O)NCCCCCN | 0% | 0% | -9%
C[C@H]1NC(=O)[C@@]2(C)[C@@H](c3ccccc3)[C@H]3COc4ccccc4[C@@H]3N2C1=O | 0% | -2% | -7%
O=C(O)c1c2c(nc3ccccc13)/C(=C/c1ccc(O)cc1)CC2 | 3% | -8% | -56%
COc1ccc(CC(=O)N[C@@H]2c3ccccc3CC[C@H]2OCc2ccccc2)cc1 | -15% | -3% | -17%
COC(=O)c1ccc(COc2ncnc3sccc23)cc1 | -2% | 11% | 6%
C=CCn1c(SCC(=O)Nc2ccc3c(c2)OCCO3)nc2cc(C(=O)O)ccc2c1=O | -1% | 2% | -16%
CCN1C(=O)[C@@H]2[C@@H](c3ccc(-c4ccc(F)cc4)c(OC)c3)N3CCCC[C@@]3(C(=O)OC)[C@@H]2C1=O | -8% | 7% | -15%
O=[N+]([O-])c1ccc(S(=O)(=O)NCC(c2cccnc2)N2CCOCC2)cc1 (configuration not stated) | 1% | -10% | 5%
O=C(Nc1cc(Cl)ccc1N1CCCC1)C1=COCCO1 | 5% | -10% | -11%
CC(=O)c1ccc(S(=O)(=O)NCCC(=O)NCCc2c[nH]c3ccccc23)cc1 | -4% | 2% | -10%
COc1ccc(CN(C)C(=O)c2cccc(S(=O)(=O)N3CCc4ccccc43)c2)c(OC)c1 | -9% | -5% | 25%
CCCNC(=O)N1[C@H]2CC[C@@H]1C(C(=O)OC)=C(c1ccc3ccccc3c1)C2 | 9% | 0% | -21%
CC(=O)NC12CC3CC(C1)CC(C(=O)N(C)CC(=O)Nc1ccc(F)c(F)c1F)(C3)C2 | 2% | -2% | -7%
COc1cc(C(C)=O)ccc1OCC(=O)Nc1ccc(Cl)c(S(=O)(=O)N2CCOCC2)c1 | 5% | -3% | 20µM*
CCOCc1c(C(=O)NCC(c2ccco2)N2CCCC2)oc2ccccc12 (configuration not stated) | -5% | -5% | ?
CCCCCCSc1cccc(-c2nc3ccccn3c2NCc2ccccc2)c1 | -5% | -12%&-12% | 25µM*
COC(=O)[C@@]12CCCCN1[C@H](c1ccc(-c3ccc(Cl)c(Cl)c3)cc1)[C@H]1C(=O)N(C)C(=O)[C@H]12 | -2% | 0% | ?
CNC[C@H]1Oc2c(NS(=O)(=O)c3ccc(OC)cc3)cccc2C(=O)N([C@H](C)CO)C[C@H]1C | 7% | 12% | -17%
Cc1c(C(=O)N(Cc2nnc(-c3ccccc3Cl)o2)C2CC2)oc2ccccc12 | -1% | 0% | 7%
Cc1ccc(C)c(S(=O)(=O)N2CCN(C(=O)[C@@H](NC(=O)c3ccc(F)cc3)C(C)C)CC2)c1 | 0% | 6% | ?
CCCCNC(=O)COC(=O)C1CCN(S(=O)(=O)c2ccc3c(c2)OCCO3)CC1 | 6% | 8% | -20%
C[C@@]12C(=O)N(Cc3ccc(F)cc3)CC(=O)N1[C@H]1c3cc(Cl)ccc3OC[C@@H]1[C@@H]2c1ccccc1 | -2% | -1% | ?
CCCCNC(=O)c1onc(CS(=O)(=O)c2ccccn2)c1C(=O)NCCCC | 5% | -8% | -8%
COC(=O)[C@]1(C)N[C@H](CN(C)S(=O)(=O)c2ccc(-c3ccccc3)cc2)[C@@H]2C(=O)N(C)C(=O)[C@@H]21 | -2% | 3% | -25%
COc1ccc(S(=O)(=O)N2CCOCC2)cc1C(=O)NC1CCCCCC1 | -4% | 2% | -7%
CC(C)(C)c1nc2c(s1)CCc1onc(-c3ccc(Cl)cc3)c1-2 | 7% | 2% | -7%
COC(=O)C1=C(c2cccc(OC)c2OC)C[C@@H]2CC[C@H]1N2C | -8% | 2% | -13%
C[C@H](CO)N1C[C@H](C)[C@@H](CN(C)Cc2ccncc2)Oc2ccc(NC(=O)CCCCCC(=O)Nc3ccccc3N)cc2C1=O | 1% | -7% | 1%
O=C(C[C@H]1C[C@H](C(=O)N2CCCCC2)[C@@]2(CCc3ccccc3)c3[nH]c4cc(-c5ccco5)ccc4c3CCN2C1=O)NCCN1CCOCC1 | 7% | 17% | 0%
COC(=O)[C@]1(C)N[C@H](CN(C)C(=O)Nc2ccc(OC)cc2)[C@@H]2C(=O)N(Cc3ccccc3)C(=O)[C@@H]21 | -5% | -11% | -19%
CSCCC(NC(=O)c1ccccc1Br)C(=O)NNC(=O)c1ccco1 (configuration not stated) | -1% | 6% | 6%
Cc1ccc(CNC(=O)CCn2cc(-c3ccc(C)cc3)nc2CCN)cc1 | -25% | -1% | -6%
COc1ccc(NC(=O)Nc2ccc3c(c2)C(=O)N([C@H](C)CO)C[C@H](C)[C@@H](CN(C)S(=O)(=O)c2ccccc2)O3)cc1 | 10% | -5% | -24%
CCN(C[C@H]1N[C@@](CC)(C(=O)OC)[C@H]2C(=O)N(Cc3ccccc3)C(=O)[C@@H]12)S(=O)(=O)c1ccccc1 | -3% | 2% | -13%
O=C(CCCNC(=O)c1ccc(Cl)cc1)Nc1cccc(S(=O)(=O)N2CCCCC2)c1 | -4% | -6% | -6%
COc1cc(OC)c(N(C)S(=O)(=O)c2cccc(C(=O)Nc3nc(C)cs3)c2)cc1Cl | -8%[6.58 µM] | -7% | -15%
Cc1ccc(CNC(=O)c2cc(-c3ccccc3C)nn2CC2CC(c3cccnc3)=NO2)cc1 (configuration not stated) | -8% | -16% | -11%
CC(C)(C)C(=O)Nc1ccccc1C(=O)NCCC(=O)Nc1ccccc1 | 7% | 2% | -15%

# A draw from above in order of length of the SMILES, largest number first.
mol | SARS PLP yeast | RE007 growth inh | StopGo reporter
O=C(C[C@H]1C[C@H](C(=O)N2CCCCC2)[C@@]2(CCc3ccccc3)c3[nH]c4cc(-c5ccco5)ccc4c3CCN2C1=O)NCCN1CCOCC1 | 7% | 17% | 0%
COc1ccc(NC(=O)Nc2ccc3c(c2)C(=O)N([C@H](C)CO)C[C@H](C)[C@@H](CN(C)S(=O)(=O)c2ccccc2)O3)cc1 | 10% | -5% | -24%
COC(=O)[C@]1(C)N[C@H](CN(C)S(=O)(=O)c2ccc(-c3ccccc3)cc2)[C@@H]2C(=O)N(C)C(=O)[C@@H]21 | -2% | 3% | -25%
C[C@H](CO)N1C[C@H](C)[C@@H](CN(C)Cc2ccncc2)Oc2ccc(NC(=O)CCCCCC(=O)Nc3ccccc3N)cc2C1=O | 1% | -7% | 1%
COC(=O)[C@]1(C)N[C@H](CN(C)C(=O)Nc2ccc(OC)cc2)[C@@H]2C(=O)N(Cc3ccccc3)C(=O)[C@@H]21 | -5% | -11% | -19%
COC(=O)[C@@]12CCCCN1[C@H](c1ccc(-c3ccc(Cl)c(Cl)c3)cc1)[C@H]1C(=O)N(C)C(=O)[C@H]12 | -2% | 0% | ?
C[C@@]12C(=O)N(Cc3ccc(F)cc3)CC(=O)N1[C@H]1c3cc(Cl)ccc3OC[C@@H]1[C@@H]2c1ccccc1 | -2% | -1% | ?
Cc1ccc(C)c(S(=O)(=O)N2CCN(C(=O)[C@@H](NC(=O)c3ccc(F)cc3)C(C)C)CC2)c1 | 0% | 6% | ?
COc1cc(C(C)=O)ccc1OCC(=O)Nc1ccc(Cl)c(S(=O)(=O)N2CCOCC2)c1 | 5% | -3% | 20µM*
Cc1ccc(CNC(=O)c2cc(-c3ccccc3C)nn2CC2CC(c3cccnc3)=NO2)cc1 (configuration not stated) | -8% | -16% | -11%
CCCCNC(=O)COC(=O)C1CCN(S(=O)(=O)c2ccc3c(c2)OCCO3)CC1 | 6% | 8% | -20%
CCCCNC(=O)c1onc(CS(=O)(=O)c2ccccn2)c1C(=O)NCCCC | 5% | -8% | -8%
COc1ccc(S(=O)(=O)N2CCOCC2)cc1C(=O)NC1CCCCCC1 | -4% | 2% | -7%
CCOCc1c(C(=O)NCC(c2ccco2)N2CCCC2)oc2ccccc12 (configuration not stated) | -5% | -5% | ?
CSCCC(NC(=O)c1ccccc1Br)C(=O)NNC(=O)c1ccco1 (configuration not stated) | -1% | 6% | 6%
CCCCCCSc1cccc(-c2nc3ccccn3c2NCc2ccccc2)c1 | -5% | -12%&-12% | 25µM*

# (listing goes on)
mol | SARS PLP yeast | RE007 growth inh | StopGo reporter
CCOC(=O)c1cccc(C2=CC(=O)C[C@H](c3ccc(OC)c(OC)c3)C2)c1 | -5% | -17% | 40µM*
COc1ccc(C(=O)OCc2ccc(C)cc2)cc1S(=O)(=O)N1CCOCC1 | -1% | -1% | 16%
O=C([O-])c1ccccc1-[n+]1c(-c2ccccc2)cc(-c2ccccc2)cc1-c1ccccc1 | -1% | -18% | ?
O=c1[nH][nH]c(C(F)(F)F)c1C=NCc1cccs1 | -1% | 5% | -26%
CCc1ccc(NC(=O)C(=O)NCC2CCCO2)cc1 (configuration not stated) | -2% | -3% | 42%[activator]
Cc1ccc([C@@H]2CC=C(C(=O)O)CN2S(=O)(=O)c2ccc(C)cc2)cc1 | 5% | 7% | 10%
CCCCCCCN1CCN=C1N(C)C | 10% | -15% | -15%
COc1ccc(N2CCN(CC(=O)Nc3ccccc3C(=O)NCc3ccccc3)CC2)cc1 | 1% | 2% | ?
Cc1occc1-c1nnc(SCC(=O)NC2CCC(C)CC2)o1 (configuration not stated) | 4% | -6% | -8%
OCC[C@H]1C[C@H](O)[C@@H](O)[C@@]2(CCc3ccccc3O2)O1 | 1% | -14% | -13%
O=C(OCCCc1cc2ccccc2c(=O)o1)c1ccc2c(c1)OCO2 | -1% | 10% | 1%
CC(C)CN(CC(C)C)C(=O)COc1ccccc1C(N)=O | -6% | 6% | -10%
c1ccc(C[C@H]2CNCCN2CCCCC2CCCCC2)cc1 | -21% | -14% | -21%
COC(=O)C1=C(c2cccc(C#N)c2)C[C@@H]2CC[C@H]1N2C(=O)NCc1cc(C)oc1C(F)(F)F | 3% | 1% | -3%
COc1cccc(NC(=O)C2CC(=O)N(Cc3ccco3)C2)c1 (configuration not stated) | 1% | -1% | 11%
CCC(c1nnc(SCC(=O)Nc2cc(C)on2)o1)N(C)C (configuration not stated) | 3% | 4% | -10%
CC(=O)Nc1ccc(S(=O)(=O)Nc2ccccc2N2CCOCC2)cc1 | 1% | 7% | -18%
NC(=O)c1ccc(NC(=O)COC(=O)c2ccc(Cl)nc2)cc1 | 5% | 12% | -13%
O=C(O)c1cccc2sc3cc(Cl)ccc3c(=O)c12 | 2% | 11% | -4%
CC(C)CC(=O)c1c(O)c(C=O)c(O)c2c1O[C@@]1(C)[C@@H](C2)C[C@H]2C[C@@H]1C2(C)C | 2% | 5% | ?
CC(=O)c1cccc(NC(=O)N2CCC(c3ccc(C)cc3)C2)c1 (configuration not stated) | -15% | -1% | 31%[activator]
Cn1nc([N+](=O)[O-])c(C(C#N)c2ccccn2)c(Cl)c1=O (configuration not stated) | 0% | 4% | 32µM*
Cc1ccc(CONC(=O)c2ccc(Cl)cc2)cc1 | 0% | 1% | 45%[activator]
CS(=O)(=O)c1ccc2nc(NC(=O)c3ccc(S(=O)(=O)NCC4CCCO4)cc3)sc2c1 (configuration not stated) | -1% | -1% | 33%[activator]

# Screening data as filed in PubChem BioAssay.
